Bioassay records (PubChem)
GLA inh pH 4.5: qHTS Assay for Inhibitors of Human alpha-Galactosidase at pH 4.5 | activity change, negative = inhibition, % at 105 µM | 230,000 tested, under 10 active | Alpha-galactosidase A (Homo sapiens), P06280 | purified enzyme, 4-MU-alpha-Gal fluorescence, pH 4.5; inconclusive = small, poorly fitted or top-dose-only inhibition, or a rising curve; inactive = flat fitted curve, though single readings scatter; no compound was filed as active;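 further: 0% = full activity with enzyme and -100% = basal without enzyme; dose as in the result columns while the protocol names 77 µM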
Rango release inh: qHTS Assay for Inhibitors of RanGTP induced Rango (Ran-regulated importin-beta cargo) - Importin beta complex dissociation. Snurportin-1 (Homo sapiens) + GTP-binding nuclear protein Ran (Homo sapiens) + Importin …. Biochemical FRET Rango-importin beta, RanGTP-induced dissociation. Potency, µM (highest dose often 46.1 µM), for the others: top-dose activity change, negative = inhibition. 340,000 compounds, 0.071% hits. AID 540253, 2011; active means falling FRET ratio curve, often poorly fitted, with flat reads before Ran was added; inconclusive means other falling curves, or compound fluorescence or quenching; inactive means flat or rising ratio curve;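 further: potency means the concentration at half of the fitted maximal effect; % of control where 0% means no effect; nearly all actives have a fitted effect of over 45% in size; -100% = wells without RanGTP and RCC1; the record marks most hits as doubtful in a second field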
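Quantitative HTS using a FRET biosensor: 0.1 uM Rango, 0.25 uM importin beta, 0.6 uM Ran, 2 mM GTP, 0.2 uM RCC1 final, PBS with DTT, Tween-20 and BSA. Post-read taken 45 min after Ran addition.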
miR-21 reporter: qHTS Assay for Modulators of miRNAs and/orActivators of miR-21 | 340,000 tested, under 10 active | Potency, µM (doses to about 38.3 µM), without a hit: at the top dose reporter change, positive = more light | HeLa miR-21 FLuc reporter, luciferase, 48 h; active = well fitted rising curve with a large enough effect; inconclusive = small, poorly fitted or top-dose-only effect; inactive = no such curve, though single readings can be large or run the other way;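 further: % of control where 0% means no effect; miR-21 action dims this reporter so a rising signal means less miR-21 action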
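HeLa miR-21-FLuc reporter line, endogenous miR-21; 2000 cells/well in DMEM/10% FBS; compound titration up to ~40uM final, 48 h, 37 degree Celsius; luciferase detection reagent, 15 min lysis, CCD luminescence.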
Rango complex inh: qHTS Assay for Inhibitors of Rango (Ran-regulated importin-beta cargo) - Importin beta complex formation. Rango CFP/YFP FRET sensor + importin beta, 45 min. Potency, µM (doses to about 92.2 µM), for inactives: at the highest dose inhibition of complex formation. 340,000 compounds, 0.031% hits; active = rising FRET ratio curve, often small or poorly fitted; inconclusive = mostly compound fluorescence or quenching in the first reads; inactive = flat curves in all reads;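 further: potency means the concentration at half of the fitted maximal effect; 0% = DMSO wells and 100% = buffer wells lacking importin beta; nearly all actives have a fitted effect of over 15% in size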
Target sequence (Q14974 whole entry, looked up): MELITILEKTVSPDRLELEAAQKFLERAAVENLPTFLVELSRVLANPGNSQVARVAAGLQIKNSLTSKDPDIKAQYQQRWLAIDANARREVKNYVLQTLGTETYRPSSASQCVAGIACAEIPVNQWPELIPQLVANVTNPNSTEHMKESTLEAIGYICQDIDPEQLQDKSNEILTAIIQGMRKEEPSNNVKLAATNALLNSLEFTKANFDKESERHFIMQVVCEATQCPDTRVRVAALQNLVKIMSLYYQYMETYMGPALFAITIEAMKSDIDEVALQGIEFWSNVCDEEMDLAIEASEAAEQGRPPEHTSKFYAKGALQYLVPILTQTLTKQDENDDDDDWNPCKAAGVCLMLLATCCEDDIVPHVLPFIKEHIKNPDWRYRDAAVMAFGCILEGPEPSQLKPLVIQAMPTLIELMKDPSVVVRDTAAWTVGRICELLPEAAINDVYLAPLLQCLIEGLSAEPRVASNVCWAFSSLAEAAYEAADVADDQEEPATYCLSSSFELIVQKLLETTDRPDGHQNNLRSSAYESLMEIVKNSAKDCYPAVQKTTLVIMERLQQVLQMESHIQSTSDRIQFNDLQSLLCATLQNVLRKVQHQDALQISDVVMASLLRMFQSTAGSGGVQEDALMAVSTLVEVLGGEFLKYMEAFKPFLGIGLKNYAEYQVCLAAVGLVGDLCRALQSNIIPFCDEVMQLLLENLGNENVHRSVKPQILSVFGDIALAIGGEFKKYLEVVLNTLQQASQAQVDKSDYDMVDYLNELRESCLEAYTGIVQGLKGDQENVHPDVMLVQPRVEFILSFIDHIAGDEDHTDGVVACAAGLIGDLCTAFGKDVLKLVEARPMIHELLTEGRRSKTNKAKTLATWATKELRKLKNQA
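Inhibition scored from the CFP 486 nm/YFP 530 nm FRET ratio 45 min after adding 0.125 microM importin beta to 50 nM Rango biosensor preincubated 5 min with compound (room temperature, PBS with DTT, Tween-20, BSA). No-importin wells as positive control.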
* marks the source's active call; other numbers are inactive results; u = inconclusive; x = no result given; & = joins results of further samples; [ ] = another dose, or the depositor's remark. Some of the compounds tested, so the mix of outcomes need not match the whole.

SMILES	GLA inh pH 4.5	Rango release inh	miR-21 reporter	Rango complex inh
O=C(NCCc1c[nH]c2ccccc12)C(=O)NCC1OCCCN1S(=O)(=O)c1cccs1 (configuration not stated)	1	5%	8%	-0.8%
O=C(COC(=O)Cn1cnc2ccccc2c1=O)Nc1ccc(Cl)cc1	2	2%	-4%	-0.4%
COc1ccc(N(CC(=O)N/N=C/c2ccc(-c3ccc([N+](=O)[O-])cc3)o2)S(=O)(=O)c2ccc(C)cc2)cc1Cl	0	u	-14%	u
COc1ccccc1-c1nc2s/c(=C\c3cccs3)c(=O)n2n1	1	-4%	-4%	-0.3%
Cc1cc(NS(=O)(=O)c2ccc(NC(=S)NC(=O)/C=C/c3ccccc3)cc2)no1	x	-1%	-9%	2.8%
CCOC(=O)c1cnn(-c2ccccc2)c1NC(=O)CCl	-4	0%	6%	2.0%
COCCOC(=O)C1=C(C)NC(=O)NC1C1CC=CCC1 (configuration not stated)	0	-1%	-9%	-4.8%
COc1cc([N+](=O)[O-])ccc1-c1ccc(/C=N/NC(=O)OC(C)(C)C)o1	-2	u	-3%	u
CC(C)C(=O)Nc1c2c(nc3c1CCC3)CCCC2	0	1%	0%	-0.1%
Cc1ccccc1-c1ccc(=O)n(CC(=O)Nc2ccc(C(=O)N3CCCC3)cc2)n1	8	-14%	-5%	0.5%
Cc1cc(OCC(=O)O/N=C(\N)Cc2cccs2)ccc1Br	0	-13%	-13%	5.0%
O=C(CCN1C(=O)COc2ccccc21)NCCN1CCOCC1	4	4%	-4%	-3.5%

Next section.
SMILES	GLA inh pH 4.5	Rango release inh	miR-21 reporter	Rango complex inh
O=C(Nc1ccccc1)C(=O)c1cn(CC(=O)N2CCCCC2)c2ccccc12	-11	-7%	-16%	-1.2%
COc1ccccc1CNc1ccc(C(=O)O)cc1	6	-1%	-13%	1.0%
CC1CCC/C(=N\NC(=O)c2ccncc2)C1 (configuration not stated)	11	-1%	-3%	-1.3%
COc1cccc(NC(=O)CSc2nnc(NC(=O)C3CCC3)s2)c1	x	u	-4%	3.6%
CNC(C)C#Cc1c(-c2cc(OC)c(OC)c(OC)c2)noc1C (configuration not stated)	x	-1%	9%	2.8%
O=C(NCc1ccc(Cl)cc1)C1CC(O)CN1S(=O)(=O)c1ccc(Cl)cc1 (configuration not stated)	x	-11%	0%	0.2%
CC(OC(=O)c1ccc([N+](=O)[O-])cc1)C(=O)NCC1CCCCC1 (configuration not stated)	x	-6%	x	0.3%
COc1ccc2oc(=O)c(-c3nnc(NCc4ccco4)s3)cc2c1	-6	u	-9%	u
CNC(=S)N1N=C(c2ccc(C)cc2)CC1c1ccc(OC)c(OC)c1 (configuration not stated)	2	-11%	-3%	0.2%
CCOC(=O)CNC(=O)CN1C(=O)CCSc2ccccc21	-6	-12%	-2%	-0.3%
CC(=O)Oc1ccc(-c2cccc(C(=O)OCC(=O)Nc3ccccc3Oc3ccccc3)c2)cc1	-2	-8%	1%	1.2%
O=C(O)C(Cc1ccccc1)N=Cc1c(O)c2ccccc2oc1=O (configuration not stated)	3	-22%	12%	-1.9%

Carrying on.
SMILES	GLA inh pH 4.5	Rango release inh	miR-21 reporter	Rango complex inh
CSc1nc(Oc2ccc(=O)n(C)n2)nc(N(C)C)n1	-4	-13%	1%	-1.5%
O=C(CCc1nc2ccccc2s1)OCc1ccccc1F	-7	17%	-3%	4.5%
CS(=O)(=O)N(CC(=O)N1CCN(c2ccccc2)CC1)c1cc(C(F)(F)F)ccc1Cl	-1	-9%	13%	-1.4%
CCN(CC)S(=O)(=O)c1ccc(NN=c2c(=O)c3ccccc3c2=O)cc1	-7	-18%	-1%	-1.0%
COc1ccccc1N1CCN(C(=O)c2cc(-c3ccccc3O)on2)CC1	x	4%	-16%&-19%	-0.8%
Cc1c(C(=O)N2CCC(n3nccc3NC(=O)C3CC3)CC2)[nH]c2ccc(Cl)cc12	x	1%	8%	-2.1%
CCC(CO)Oc1cc(NCc2cccc(F)c2)c2ncn(C(C)C)c2c1 (configuration not stated)	x	u	x	u
CCCOC(=O)Nc1ccc(N2CCCCC2)cc1	5	1%	-16%	2.2%
COc1ccc(Cn2c(C)c(C)c(C#N)c2NC(=O)Nc2ccc(Cl)cc2)cc1	-7	9%	-3%	5.4%
CCOc1cccc(-c2nnc3sc(-c4cc(OC)c(OC)cc4OC)nn23)c1	0	x	-1%	x
C[C@H](NS(=O)(=O)c1ccc(F)cc1)C(=O)OCC(=O)c1c(N)n(C)c(=O)n(C)c1=O	x	-8%	x	1.5%
Clc1cccc(N2CCN(Cc3nc(-c4ccccc4)no3)CC2)c1	-4	-13%	-2%	-2.1%

Remaining list, next part
SMILES	GLA inh pH 4.5	Rango release inh	miR-21 reporter	Rango complex inh
C/C(=N/OCO/N=C(/C)c1ccc(F)cc1)c1ccc(F)cc1	4	25%	-5%	-1.8%
O=C(Nc1cc(S(=O)(=O)N2CCOCC2)ccc1Cl)c1cc([N+](=O)[O-])ccc1Cl	x	5%	x	3.5%
COc1ccc(C(=O)COC(=O)CNC(=O)c2cccs2)cc1Br	x	2%	0%	0.3%
Cc1ccccc1NCCC(=O)Nc1ccc(F)cc1	x	30%	-17%	5.1%
CC(C)CCNC(=O)C1CC2Cn3c(nc4cc(Cl)c(Cl)cc43)C2N1C (configuration not stated)	x	6%	x	-5.5%
Cc1cccc2cc(CNCC3CCCO3)c(Cl)nc12 (configuration not stated)	4	-13%	-9%	5.4%
C=C1CCC(N(O)c2cc(C)on2)C(=C)CCC2C1CC2(C)C (configuration not stated)	x	-9%	x	4.9%
O=C(CSc1nc(-c2ccco2)cc(C(F)(F)F)n1)N1CCSCC1	-5	0%	-6%	-2.9%
Cc1ccccc1OCc1nc2c3cnn(C)c3ncn2n1	-10	2%	-29%	-0.3%
Cc1ccc(CC(=O)Nc2cccc(C#N)c2)cc1	3	9%	-8%	-0.2%
COc1ccc(-c2cn(Cc3ccc4ccccc4c3)nn2)cc1	x	-2%	-2%	0.2%
COc1ccc(-c2cc(C(F)(F)F)nc(S(C)(=O)=O)n2)cc1OC	1	0%	u	-0.4%

Additional compounds follow.
SMILES	GLA inh pH 4.5	Rango release inh	miR-21 reporter	Rango complex inh
COc1ccccc1C(=O)Nc1ccnn1C1CCN(CCCc2ccccc2)CC1	x	6%	0%	-1.9%
Cc1ccc(C(=O)N2C(=O)c3cccc(N)c3C2=O)o1	2	-20%	-4%	u
COc1ccc(C)cc1N(CC(=O)O)S(=O)(=O)c1ccc(C)cc1	-3	1%	-8%	0.2%
CC(C)n1c(SCC(=O)Nc2ccccc2N2CCOCC2)nc2c1c(=O)n(C)c(=O)n2C	0	-6%	2%	3.5%
Cc1ccc(C(=O)NC(=S)N2CCN(C(=O)OC(C)(C)C)CC2)cc1Br	4	37%	0%	-1.5%
CN(C)c1ccc(C(CC(=O)O)NC(=O)c2ccc(Cl)cc2)cc1 (configuration not stated)	-2	17%	-2%	-0.1%
CCSc1nc2c(c(=O)[nH]c(=O)n2C)n1C	-1	-11%	-19%	-4.8%
CC(C)N(C(=O)CSc1nnc(CSc2ncccn2)n1C)C(C)C	5	-11%	-1%	-4.4%
O=C(Nc1ccccc1Cl)C(Cl)C(=O)c1ccccc1 (configuration not stated)	6[21.1 µM]	17%	-1%	4.5%
Cc1ccccc1CSc1nnc(C)c(=O)n1N	6	5%	3%	2.0%
Cc1c(Cl)c([N+](=O)[O-])nn1CCCC(=O)Nc1sc2c(c1C#N)CCC2	-5	3%	-6%	0.4%
O=C(CSCc1ccccc1Cl)NNC(=O)c1ccccc1	12	-6%	0%	3.0%

More structures
SMILES	GLA inh pH 4.5	Rango release inh	miR-21 reporter	Rango complex inh
COc1ccc(/C=C/C(=O)NCc2ccc(F)cc2)cc1S(=O)(=O)N1CCOCC1	8	1%	-2%	5.1%
COc1ccc(C(=O)NC2CCN(S(=O)(=O)c3ccc(C)cc3)CC2)cc1	x	-5%	5%	-0.4%
Cc1ccc(C(=O)Nc2cc(Cl)ccc2Oc2ccccc2)cc1[N+](=O)[O-]	4	u	2%	-1.8%
COCCN1C(=O)N(C)[C@@H](c2ccccc2)C(C(C)=O)=C1C	7&-6	-7%	-2%	-0.6%
COCCN1C(=O)N[C@@H](c2ccc(Br)cc2)C(C(C)=O)=C1C	3&-3	x	-3%	x
COc1ccccc1CNS(=O)(=O)c1cc(CN2C(=O)c3cccnc3C2=O)ccc1OC	x	-1%	0%	4.9%
CCCCn1nnnc1SCC(=O)NCc1ccccc1	-2	2%	-3%	-0.3%
NC(=O)c1ccc(NC(=O)COC(=O)c2cc3ccccc3cc2O)cc1	x	4%	x	1.4%
O=C(O)CN1C(=O)c2ccc(Oc3ccc([N+](=O)[O-])cc3)cc2C1=O	x	-6%	-3%	-1.7%
CC(NS(=O)(=O)c1ccc(Br)cc1)C(=O)NCc1ccco1 (configuration not stated)	6	0%	0%	u
Cc1ccc2c(cnn2C(=O)CCC(=O)N2CCCCC2)c1	x	-12%	-1%	-5.1%
CC1CCCN(C(=O)c2cccc(S(=O)(=O)N3CCCC3)c2)C1 (configuration not stated)	x	-4%	x	-2.3%

The final two compounds of the section before lead into the next.
SMILES	GLA inh pH 4.5	Rango release inh	miR-21 reporter	Rango complex inh
Cc1ccc2c(cnn2C(=O)CCC(=O)N2CCCCC2)c1	x	-12%	-1%	-5.1%
CC1CCCN(C(=O)c2cccc(S(=O)(=O)N3CCCC3)c2)C1 (configuration not stated)	x	-4%	x	-2.3%
COc1cc(S(=O)(=O)NCc2ccccc2Cl)ccc1-n1cnnn1	x	-11%	-3%	-1.5%
CC(Sc1ccc(Cl)cc1)C(=O)NNC(=O)c1ccncc1 (configuration not stated)	x	-1%	x	u
COc1ccc(/C=N/n2cnc3scc(-c4cccs4)c3c2=O)cc1OC	5	18%	0%	-0.1%
CC(OC(=O)c1ccc2ncsc2c1)C(=O)N1CCCC1 (configuration not stated)	2	x	-9%	x
O=C(Nc1ccc(S(=O)(=O)N2CCCC2)cc1)C1COc2ccccc2O1 (configuration not stated)	-10	3%	-5%	u
CCO/C([O-])=N/c1sn[n+](C)c1C	2	22%	-4%	-0.1%
COc1cc(CCC(=O)OCC(=O)Nc2ccc(F)c(F)c2F)cc(OC)c1OC	x	-11%	1%	0.5%
Cc1ccc([C@H]2C(C(=O)O)=CC[C@@H](c3ccc4c(c3)OCO4)N2S(=O)(=O)c2ccc(C)cc2)cc1	x	0%	x	5.8%
COC(=O)CCP(=O)(O)Cc1ccccc1CP(=O)(O)CCC(=O)OC	0	-11%	-2%	2.1%
Cn1cnnc1SCC(=O)c1ccc2c(c1)OCCO2	6	3%	-15%	-3.4%
Cc1ccc(-c2cccc(CN3CCN(C(C)C)C(CCO)C3)c2)o1 (configuration not stated)	2	-14%	-3%	2.3%
CCOC(=O)N1CCN(C(=O)c2cn(C)c3ccc(S(=O)(=O)N(CC)CC)cc3c2=O)CC1	x	-2%	-1%	-0.8%
CCC(=O)N1CCN(c2ccccc2NC(=O)COc2cccc(C)c2C)CC1	x	2%	9%	4.1%
O=C(NCc1cccnc1)c1ccc([N+](=O)[O-])o1	-15	-2%	16%	0.8%
Cc1cccc(C(=O)NC2CCN(C(=O)Nc3ccccc3C)CC2)c1	0	0%	0%	-0.2%
